Source: PubChem (National Center for Advancing Translational Sciences (NCATS))
Marburg entry inh = qHTS for inhibitors of binding or entry into cells for Marburg Virus. AID 540276, 2011. Potency, µM (highest dose often 37.8 µM), for the others: top-dose activity change, negative = inhibition, most hits filed as inhibitors. 300,000 tested, 1.8% active. Marburg virus pseudotyped entry inhibition, cell reporter; control for the full effect not named in the record; about a third of the inactives were read at about 46 µM; active = well fitted inhibition curve with a large enough effect; inconclusive = small, poorly fitted or top-dose-only effect, or effect the other way; inactive = flat fitted curve, though single readings scatter; tested in HEK293 cells; about a fifth of its hits are not listed in these tables; note: % is set by controls: 0 for no effect and ±100 for the full control effect; luciferase read-out
SARS PLpro yeast = qHTS of Yeast-based Assay for SARS-CoV PLP; S. cerevisiae expressing SARS-CoV PLpro, growth rescue; control for the full effect not named in the record; Potency, µM (doses to about 32.9 µM), for inactives: top-dose activity, positive = growth rescue; 330,000 tested, 0.19% active; AID 485353, 2010; active means well fitted rising curve with a large enough effect; inconclusive means small, poorly fitted or top-dose-only effect; inactive means no such curve, though single readings can be large or run the other way; note: 0% is about no effect; nearly all actives have a fitted effect of over 55% in size; growth read by luminescence after 48 h
NS1 function inh = qHTS Assay for Inhibitors of Influenza NS1 Protein Function | S. cerevisiae slowed by influenza A NS1, growth recovery by OD600 | Potency, µM (titrated, usually from 46.1 µM), for the others: at the highest dose activity, positive = more growth | AID 2326, 2010 | 270,000 tested, 0.4% active; active means well fitted rising curve with a large enough effect; inconclusive means small, poorly fitted or top-dose-only effect; inactive means no such curve, though single readings can be large or run the other way; note: nearly all actives have a fitted effect of over 50% in size
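Growth recovery, yeast-based: influenza A NS1 expressed in S. cerevisiae causes slow growth, and suppressors are detected by OD600. The parent strain without NS1 is used as positive control.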
RE007 growth inh = qHTS Assay for Inhibitors of the HIV-1 protein Vpr | S. pombe RE007 Vpr strain, BacTiter-Glo ATP luminescence, 24 h; control for the full effect not named in the record | Potency, µM (top dose mostly 92.2 µM), for the others: top-dose activity change, negative = less growth | 360,000 tested, 0.21% active | AID 651644, 2012; active = well fitted falling curve with a large enough effect; inconclusive = small, poorly fitted or top-dose-only effect; inactive = no such curve, though single readings can be large or run the other way;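 note: % is set by controls: 0 for no effect and ±100 for the full control effect; nearly all actives have a fitted effect of over 50% in size; the assay follows cell death caused by Vpr and the record does not say whether a fall means rescue or toxicity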
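Fission yeast strain RE007, carrying one chromosomally integrated HIV-1 vpr copy, was seeded at OD 0.01 in PMG+AL medium with 23 nL pinned compound. After 24 h at 30 °C and 99% humidity, viability was read by BacTiter-Glo luminescence.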
LASV entry inh = qHTS for Inhibitors of binding or entry into cells for Lassa Virus. Lassa virus pseudotype entry inhibition, cell reporter; control for the full effect not named in the record. Potency, µM (doses to about 37.9 µM), for inactives: top-dose activity change, negative = inhibition, usual class: inhibitors. 300,000 tested, 1.2% active. AID 540256, 2011; active means well fitted inhibition curve with a large enough effect; inconclusive means small, poorly fitted or top-dose-only effect, or effect the other way; inactive means flat fitted curve, though single readings scatter; tested in HEK293 cells; note: % is set by controls: 0 for no effect and ±100 for the full control effect; nearly all actives have a fitted effect of over 50% in size; luciferase read-out
Cruzain Triton = qHTS Assay for Promiscuous and Specific Inhibitors of Cruzain (with detergent); AID 1478, 2009; purified cruzain, Z-FR-AMC fluorescence, 0.01% Triton; 200,000 tested, 0.43% active; Potency, µM, for the others: max response, negative = inhibition, actives largely listed as inhibitors;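 note: plate controls were neutral wells for no effect and buffer without enzyme for full effect; nearly all actives have a fitted effect of over 40% in size; top concentration of the series not given in the record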
Target sequence (P25779 123-467 limits assumed): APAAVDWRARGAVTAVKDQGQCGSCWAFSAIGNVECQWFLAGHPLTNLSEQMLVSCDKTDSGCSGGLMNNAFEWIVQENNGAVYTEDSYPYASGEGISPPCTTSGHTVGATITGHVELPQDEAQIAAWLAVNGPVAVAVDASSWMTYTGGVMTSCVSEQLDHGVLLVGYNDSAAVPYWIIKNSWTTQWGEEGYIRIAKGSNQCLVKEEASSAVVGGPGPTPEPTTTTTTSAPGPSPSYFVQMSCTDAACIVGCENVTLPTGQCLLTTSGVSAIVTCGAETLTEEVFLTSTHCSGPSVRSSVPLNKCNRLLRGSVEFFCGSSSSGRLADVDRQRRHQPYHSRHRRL
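Detergent-containing run (0.01% Triton X-100) in acetate buffer pH 5.5 with 5 mM DTT: enzyme at 1.5 nM final, 15 min compound preincubation at room temperature, then 2 uM Z-FR-AMC substrate. Activity taken as 60 s fluorescence increase at 360/450 nm.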
2A StopGo = High Throughput Screening for Foot and Mouth Disease Virus Antivirals. human cells with a luciferase reporter of 2A StopGo recoding; control for the full effect not named in the record. Potency, µM (doses to about 57.9 µM), for the others: at the highest dose signal change, negative = less light. 410,000 tested, 1.2% active; active = well fitted falling curve with a large enough effect; inconclusive = small, poorly fitted or top-dose-only effect; inactive = no such curve, though single readings can be large or run the other way; tested in HEK293T cells; note: % is set by controls: 0 for no effect and ±100 for the full control effect; nearly all actives have a fitted effect of over 45% in size; luciferase light after 4 h
Cruzain noTriton = qHTS Assay for Promiscuous and Specific Inhibitors of Cruzain (without detergent); Cruzipain (Trypanosoma cruzi), P25779; purified cruzain, Z-FR-AMC fluorescence, no detergent; Potency, µM, for the others: max response, negative = inhibition, usual class: inhibitors; 200,000 tested, 2.3% active; AID 1476, 2009;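 note: plate controls were enzyme without inhibitor for no effect and buffer without enzyme for full effect; nearly all actives have a fitted effect of over 40% in size; top concentration of the series not given in the record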
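Purified cruzain at 1.5 nM, pre-incubated 15 min with compound at room temperature in 100 mM sodium acetate pH 5.5, 5 mM DTT, 0.00005% Triton X-100. Reaction started with 2 uM Z-FR-AMC; AMC fluorescence increase over 60 s gives rate.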
Active calls of the source: *; u = inconclusive; x = no result given; & = joins results of further samples; [ ] = another dose, or the depositor's remark. Unless noted, calls come from the whole dose curve; as a rule, active = well fitted curve in the direction sought with a large enough effect; inconclusive = small, poorly fitted or top-dose-only effect, or another doubt; inactive = no such curve, though single readings can be large; an effect the other way counts as inactive or inconclusive. Potency is the fitted concentration of half-maximal effect. Compounds as they come; about 4.7% have a hit in one of these screens.

SMILES	Marburg entry inh	SARS PLpro yeast	NS1 function inh	RE007 growth inh	LASV entry inh	Cruzain Triton	2A StopGo	Cruzain noTriton
COC(=O)c1ccc(CSc2nc(C(F)(F)F)c3c(c2C#N)CCC3)o1	-16%	-5%	10%	6%	7%	-8.8%	-7%	8%
Cc1ccc2c(c1)N(CC(=O)NC1CCCC(C)C1C)C(=O)c1cccnc1O2 (configuration not stated)	x	0%	-4%	15%	x	x	1%	x
COc1ccc(C2=NOC(C(=O)N3CCCCCC3)C2)cc1OC (configuration not stated)	u	6%	-5%	9%	1%	-5.2%	8%	-6%
O=C(CNC(=O)c1ccco1)Nc1ccncc1	-4%	3%	x	-17%	-13%[46.1 µM]	x	-17%	x
CN(CCCNC(=O)c1cn(C)c2ccc(S(=O)(=O)N(C)C)cc2c1=O)c1ccccc1	-17%&-17%	-8%	-50%	1%	1%	-3.5%	-16%	u
O=C(Nc1nncs1)c1cc(S(=O)(=O)N2CCOCC2)ccc1Cl	-3%[46.1 µM]	0%	5%	10%	u	x	-7%	x
COc1ccc(CNCCC(c2ccc(C)cc2)c2ccco2)cc1 (configuration not stated)	28µM*	x	x	x	-20%[46.1 µM]	-6.4%	-7%	u
CCCCOC(=O)C1=C(C)Nc2ncnn2C1c1cc(OC)ccc1OC (configuration not stated)	4%	-1%	1%	7%[3.69 µM]	2%	4.4%	-6%	5%
COc1ccc(Nc2nc(-c3cccc(OC)c3O)nc3ccccc23)cc1	x	-6%	11%	1%	x	x	4%	x
Cc1ccc(-c2nnc3cccc(Cl)n23)cc1	4%	1%	x	11%	-7%	x	1%	x
CN=c1scc(C)n1/N=C/c1ccc(O)cc1O	u	-15%	-99%	u	u	-7.1%	u	-9%
COC(=O)c1c(C)oc2ccc(N(C(=O)Oc3ccccc3)S(=O)(=O)c3ccccc3)cc12	u	-3%	-1%	3%	u	-4.4%	-8%	u
NS(=O)(=O)c1ccc(CNC(=O)c2cc(-c3cccs3)nc3ccccc23)cc1	x	-1%	10%	-2%	x	x	-21%	x
COc1ccc(S(=O)(=O)Nc2cccc(S(=O)(=O)NC3=NCCC3)c2)cc1[N+](=O)[O-]	u	4%	x	-18%	19%	x	32%[activator]	x
Cc1ccc(NC(=O)C(=O)NCCN2CCN(C(=S)Nc3ccccc3)CC2)cc1	11%	10%	2%	12%	5%	-2.5%	-3%	14%
O=C(Nc1ccc2c(c1)OCO2)C1CCN(S(=O)(=O)c2ccc3c(c2)OCCO3)CC1	2%&23%	-5%	-2%	1%	-13%	2.6%	0%	11%
CCN1CCCC1CNC(=O)C1CCN(Cc2nc(-c3cccc(Br)c3)oc2C)CC1 (configuration not stated)	3.5µM*	-12%	3%	0%	11µM*	-8.6%	-19%	2%
CN(C)CCNC(=O)C12CC3(C)CC(C)(CC(C)(C3)C1)C2	u	7%	2%	7%	u	5.1%	-9%	0%
Cc1ccc(/C(=N/Nc2nc3ccccc3s2)C2=C(O)c3ccccc3C2=O)cc1	-1%[46.1 µM]	15%	x	-5%	-24%	x	0%	x
CCOC(=O)C1=NN(c2ccc(Cl)cc2)/C(=C/C2=NCCc3cc(OC)c(OC)cc32)S1	x	0%	-3%	-7%	x	x	13%	x

Some of the entries so far, as comma-separated lines.
compound,Marburg entry inh,SARS PLpro yeast,NS1 function inh,RE007 growth inh,LASV entry inh,Cruzain Triton,2A StopGo,Cruzain noTriton
Cc1ccc2c(c1)N(CC(=O)NC1CCCC(C)C1C)C(=O)c1cccnc1O2 (configuration not stated),x,0%,-4%,15%,x,x,1%,x
COc1ccc(C2=NOC(C(=O)N3CCCCCC3)C2)cc1OC (configuration not stated),u,6%,-5%,9%,1%,-5.2%,8%,-6%
O=C(CNC(=O)c1ccco1)Nc1ccncc1,-4%,3%,x,-17%,-13%[46.1 µM],x,-17%,x
CN(CCCNC(=O)c1cn(C)c2ccc(S(=O)(=O)N(C)C)cc2c1=O)c1ccccc1,-17%&-17%,-8%,-50%,1%,1%,-3.5%,-16%,u
O=C(Nc1nncs1)c1cc(S(=O)(=O)N2CCOCC2)ccc1Cl,-3%[46.1 µM],0%,5%,10%,u,x,-7%,x
COc1ccc(CNCCC(c2ccc(C)cc2)c2ccco2)cc1 (configuration not stated),28µM*,x,x,x,-20%[46.1 µM],-6.4%,-7%,u

(further entries)
SMILES	Marburg entry inh	SARS PLpro yeast	NS1 function inh	RE007 growth inh	LASV entry inh	Cruzain Triton	2A StopGo	Cruzain noTriton
Cn1cccc1Cc1nnc(SCC(=O)Nc2ccc(F)cc2)n1-c1ccc(F)cc1	-28%&-28%	10%	-28%	1%	6%	-2.4%	0%	13%
CCOc1ccc(N(C(=O)c2snc(C(N)=O)c2N)C(C(=O)NC2CCCC2)c2ccncc2)cc1 (configuration not stated)	0%[46.1 µM]	0%	1%	-15%	0%[46.1 µM]	x	-7%	x
COc1ccc(NC(=O)CN2C(=O)c3ccccc3S2(=O)=O)cc1S(=O)(=O)N1CCOCC1	-10%	1%	x	3%	-15%	x	-25%	x
C/C(=N\NC(=O)c1cc(-c2cccs2)nc2ccccc12)c1ccccn1	4.6µM*	-19%	-8%	9%	6.5µM*	x	u	x
O=C(NCc1ccc(Cl)cc1)c1ccc(CNS(=O)(=O)c2ccc(F)cc2)cc1	x	x	x	x	15%[46.1 µM]	-1.3%	-14%	-3%
O=C(CN1C(=O)S/C(=C\c2cccc(Cl)c2)C1=O)NC1C=CS(=O)(=O)C1 (configuration not stated)	x	-4%	2%	-10%	x	x	-22%	x
COCCCNC(=O)CS(=O)(=O)Cc1nc(-c2ccccc2C)oc1C	x	12%	-12%	11%	x	1.5%	-18%	1%
CONC(=O)Nc1ccccc1[N+](=O)[O-]	1%	2%	-5%	-14%	13%	-2.6%	-5%	9%
COc1cccc(C(=O)NN2C(=S)N(c3ccccc3)C(=O)C2CC(N)=O)c1 (configuration not stated)	29%	0%	3%	-13%	u	x	45%[activator]	x
COc1ccc(N(C2CSC2)S(=O)(=O)c2ccccc2)cc1	0%	4%	-3%	1%	-3%	-2.1%	-15%	2%
CCOC(=O)C1CCCN(C(=O)c2cn(CC)c3ccc(S(=O)(=O)N4CCCC4)cc3c2=O)C1 (configuration not stated)	3%	-4%	0%	2%	2%	3.2%	47%[activator]	9%
COc1ccc(NC(=O)c2cccnc2Nc2ccc(OC)cc2)cc1	4%	-26%	-3%	-8%	3%	-6.8%	-8%	-4%
Cc1cccc(NC(=O)C2CCN(S(=O)(=O)c3c(C)noc3C)CC2)c1	x	-1%	6%	2%	x	x	-5%	x
c1ccc(CNc2nc(-c3cccs3)nc3ccccc23)nc1	u	-12%	x	-14%	x	x	-11%	x
Cc1noc(C)c1CSc1ccccc1C(=O)N1CCN(c2ccccc2)CC1	-13%	-22%	-14%	-6%	10µM*	-0.5%	u	26%
Cc1ccc(S(=O)(=O)N2CCCCC2)cc1C(=O)N(C)CCOc1ccccc1	x	u	-4%	-7%	x	x	-6%	x
CN1CCN(C(=O)c2ccc3c(c2)OCCO3)CC1	10%[46.1 µM]	16%	7%	17%	-4%	0.9%	17%	-7%
COC(=O)C1=C(C)N(Cc2cccnc2)C(=O)C1	u	1%	10%	17%	4%	-0.7%	14%	-5%
COc1ccc(N(CC(=O)N/N=C/c2ccc(N(C)C)cc2)S(=O)(=O)c2ccccc2)cc1	u	4%	-1%	10%	u	x	1%	x
COc1ccc(N2CCN(C(=O)c3ccc(N(C)S(=O)(=O)c4ccc(C)cc4)cc3)CC2)cc1	u	0%	11%	5%	u	x	u	x
COc1cccc2c1cc1c(=O)n(CC(=O)NC3CCCCC3)nc(C)n12	5%&5%[46.1 µM]	4%	4%	1%	x	1.0%	-14%&-7%	3%
CC(=O)c1cc(-c2nc3ccccc3n2C)n(C)c1	11%	0%	-7%	38%	9%	-0.4%	-3%	2%
Cc1cccc(S(=O)(=O)Nc2ccc(-c3nc4ccc(C)cc4s3)cc2)c1	u	12%	18%	-8%	u	-2.8%	39%[activator]	u
Cc1cc(C(=O)N/N=C/c2ccncc2)c(C)o1	-13%	0%	0%	-3%	-5%	x	0%	x
COc1cc(C)ccc1OCc1cc(C(=O)NCc2ccncc2)no1	u	-1%	-3%	7%	-4%	x	30%	x
COC(=O)[C@H]1Cc2c([nH]c3ccccc23)[C@H](c2ccccc2)N1	x	-2%	-6%	0%	x	x	10%	x
Cc1nnc(NC(=O)c2cccn(Cc3cccc([N+](=O)[O-])c3)c2=O)s1	x	x	x	x	8%[46.1 µM]	-1.2%	-15%	14%
NC(=O)C1CCCN(C(=O)CNC(=O)C23CC4CC(CC(C4)C2)C3)C1 (configuration not stated)	9%	3%	x	-13%	9%	x	4%	x

Some of these compounds in order of SMILES length, highest first:
SMILES	Marburg entry inh	SARS PLpro yeast	NS1 function inh	RE007 growth inh	LASV entry inh	Cruzain Triton	2A StopGo	Cruzain noTriton
CCOc1ccc(N(C(=O)c2snc(C(N)=O)c2N)C(C(=O)NC2CCCC2)c2ccncc2)cc1 (configuration not stated)	0%[46.1 µM]	0%	1%	-15%	0%[46.1 µM]	x	-7%	x
NS(=O)(=O)c1ccc(CNC(=O)c2cc(-c3cccs3)nc3ccccc23)cc1	x	-1%	10%	-2%	x	x	-21%	x
Cn1cccc1Cc1nnc(SCC(=O)Nc2ccc(F)cc2)n1-c1ccc(F)cc1	-28%&-28%	10%	-28%	1%	6%	-2.4%	0%	13%
